Screens from PubChem.
CDC25B CDK2 inh = primary biochemical HTRF screen for blockers of M-phase inducer phosphatase 2 binding to CDK2/cyclin A | P30305+P24941 | HTRF CDC25B-CDK2/CyclinA binding, anti-His/anti-Flag; stronger effect = higher value | z-score (concentration not given with the values) | 0.72% of 94,000 active;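 also: score is relative to mean and SD of negative controls; strong numbers were not always called active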
TAR Tat displ = TAR RNA-Tat peptide displacers, HIV-1, primary screen, biochemical, FRET, FAM/TAMRA-labeled Tat. HIV-1 TAR RNA, Tat peptide displacement FRET; stronger effect = higher value. z-score (no concentration beside the values). 0.6% of 100,000 active. AID 1259389, 2018;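 also: score is relative to mean and SD of negative controls; some compounds called inactive have numbers as strong as hits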
Numbers without * were called inactive; . = not tested or not shown.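 The calls were made as follows: active = z-score from 3 up in half or more of its runs; inactive = the rest.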 Compounds as they come; overall some 0.89% were active at least once.

Order of values: CDC25B CDK2 inh | TAR Tat displ
- COc1ccc(OC)c(CNc2nc(NCCCO)nc3c2cnn3C)c1
    . | 1.5
- O=c1c(S(=O)(=O)c2ccc(F)cc2)c[nH]c2ccc(Cl)cc12
    -1.8 | 3
- CCOCCOC(=O)C1=C(C)NC(=O)NC1c1ccccc1 (stereo not drawn)
    -1.2 | .
- Clc1ccc(Nc2c3c(nc4ncnn24)CCCC3)cc1
    . | 0.58
- CCCCNc1ncnc2c1cnn2-c1ccc(OC)cc1
    . | 1.1
- CN(C)CCCNCc1cccn1C
    -0.88 | -2.2
- CNc1nc(Oc2ccc(=O)[nH]n2)nc(N(C)C)n1
    -1.1 | 0.66
- Fc1cccc(-c2nnn3c2nc(N2CCOCC2)c2cc(Cl)ccc23)c1
    -1.4 | -0.11
- CSc1ncc(C(=O)Nc2ccc3c(c2)OCCO3)c(C)n1
    . | 2.1
- CCN1C(=O)Cc2cc(NS(=O)(=O)c3c(C)c(C)cc(C)c3C)ccc21
    . | 1.4
- Cc1ccc(C)n1-c1ccc(Cl)c(C(=O)O)c1
    0 | 16*
- CCOC(=O)Cc1csc(NC(=O)c2nccnc2C(=O)O)n1
    -1.1 | .
- N#Cc1nc(-c2ccc(S(=O)(=O)N3CCc4ccccc4C3)cc2)oc1NCc1ccc(F)cc1
    -1.1 | -0.41
- COc1ccc(N2CCCS2(=O)=O)cc1NC(=O)COc1ccccc1OC
    . | 1
- Cn1nc2nc(-c3ccccc3)cc(-c3ccccc3)[n+]2n1
    -0.29 | -1.3
- CCN1C(C(=O)c2ccccc2)=C(OC(=O)c2ccc(C)cc2)c2ccccc2S1(=O)=O
    0.98 | 0.47
- COc1ccc(-c2nn3c(COc4cccc(C)c4)nnc3s2)cc1OC
    -0.69 | -0.04
- O=C(c1cccs1)n1nccc1-c1cccs1
    -1.8 | .
- COc1cccc(CC(=O)NNC(=O)c2ccc3c(c2)OCO3)c1
    -0.93 | .
- Cc1ccc2occ(CC(=O)N(Cc3ccc(Cl)cc3)C3CCS(=O)(=O)C3)c2c1 (stereo not drawn)
    -0.75 | 1.2
- O=C(CSCc1cnn(-c2ccccc2)c1-n1cccc1)NCCC1=CCCCC1
    1.1 | -0.17
- O=C(COc1ccc2ccccc2c1)Nc1ccccc1C(=O)Nc1ccccc1
    -10 | .
- Cc1noc(-c2ccc(C)c(S(=O)(=O)Nc3ccc(C)c(F)c3)c2)n1
    . | 1.3
- Cc1ccccc1NS(=O)(=O)c1cn(C)cn1
    . | 1.8
- NC(=O)C1CCN(C(=O)CSCc2cnn(-c3ccccc3)c2-n2cccc2)CC1
    -2.1 | 1.9
- Fc1ccc(C2=Nn3c(nnc3C3CCCCC3)SC2)cc1
    . | 0.04
- COc1cc(CN(C)C)c(O)c(CN(C)C)c1
    -0.86 | -0.17
- COc1ccc(OC)c(-c2noc(Nc3ccc(Cl)cc3)n2)c1
    . | -2.2
- O=C(Cn1ncc2c(=O)oc3ccccc3c21)NCC1(c2ccccc2)CCCC1
    0.97 | 1.4
- CCOc1cc(S(=O)(=O)Nc2ccccn2)ccc1Cl
    0.06 | 0.74
- CC1(C)CC(N2CCN(C3CC(C)(C)NC(C)(C)C3)CC2)CC(C)(C)N1
    -1.4 | .
- Cc1ccc(-c2nc(S(=O)(=O)c3ccc(C)cc3)c(N3CCOCC3)o2)cc1
    -1.6 | 1.4
- Cc1ccc(Nc2c(-c3ccsc3)nc3ncccn23)c(C)c1
    -1.3 | -0.45
- CCCCN(C)c1c(-c2ccc3c(c2)OCC(=O)N3)c(=O)c1=O
    . | -0.3
- COC(=O)c1c(NC(=O)c2cc(=O)c3ccc(C)c(C)c3o2)sc2c1CCC2
    0.58 | 0.61
- Cc1ccc2[nH]c(=O)c(NC(N)=O)nc2c1
    -1.5 | -0.28
- Cc1ccc2[nH]cc(NC(=O)NCC3CCN(CCc4ccccc4)C3)c(=O)c2c1 (stereo not drawn)
    -0.32 | 0.69
- COc1cc(Br)cc(C2NC(=O)c3c(sc4c3CCN(C)C4)N2)c1O (stereo not drawn)
    -0.95 | -2.1
- O=C(Nc1ccccc1C(=O)O)c1cccs1
    -2.5 | .
- CN(CCc1ccncc1)[C@H]1CS(=O)(=O)C[C@@H]1S(=O)(=O)c1ccc(F)cc1
    -1.6 | 1.5
- Cn1nc(C(F)(F)F)c(-c2cccc(C(F)(F)F)c2)c1NC(=O)c1nccnc1C(=O)O
    -1.4 | .
- CC1CCC2C(=O)N(c3ccc(Br)cc3)C(=O)C2C1 (stereo not drawn)
    0.94 | 0.03
- Cn1ncc2c(Nc3ccc(F)cc3)nc(NCc3ccco3)nc21
    . | 0.08
- CCNc1nc(N2CCOCC2)c2cnn(C)c2n1
    . | 1.3
- CCN1CCN(C(=O)Cn2ncc3ccsc3c2=O)CC1
    -1 | .

Some of the entries so far, as tab-separated lines:
compound	CDC25B CDK2 inh	TAR Tat displ
COC(=O)c1c(NC(=O)c2cc(=O)c3ccc(C)c(C)c3o2)sc2c1CCC2	0.58	0.61
Cn1nc(C(F)(F)F)c(-c2cccc(C(F)(F)F)c2)c1NC(=O)c1nccnc1C(=O)O	-1.4	.

Additional structures.
Order of values: CDC25B CDK2 inh | TAR Tat displ
- C=CCSc1nnc2n1CCCN2
    -0.82 | .
- O=C(/C=C/c1cccc([N+](=O)[O-])c1)NCCSCc1cccc(Cl)c1
    1.8 | .
- Cn1c(=O)c2c(nc(NCCCO)n2Cc2ccccc2F)n(C)c1=O
    -0.42 | -0.58
- O=C(CCCN1C(=O)c2ccccc2C1=O)Nc1c2c(nc3c1CCC3)CCC2
    -1.5 | .
- CCOC(=O)C1=C(C)NC2=C(C(=O)CC(C)(C)C2)C1c1ccc(N(CC)CC)cc1 (stereo not drawn)
    0.6 | 1.1
- O=C(NCCC1=CCCCC1)c1noc2c1CCc1sccc1-2
    . | -0.77
- CCCN1C(=O)/C(=C2\SC(=S)N(CCOC)C2=O)c2ccccc21
    -2.9 | .
- C#C[C@]1(O)CCC2C3CCc4cc(O)ccc4C3CC[C@@]21C (stereo partly drawn)
    . | 0.35
- Cc1ccc(-c2nc3ncccn3c2NC2CCCC2)cc1C
    . | 0.87
- Cc1noc2ncnc(N3CCC(C(=O)NC4CCCC4)CC3)c12
    . | 1.3
- COc1ccc(OC)c(NCc2cccn2-c2nnc(N3CCCCC3)s2)c1
    . | 0.72
- CC(C)(C)c1ccc(C2c3c(-c4ccccc4O)n[nH]c3C(=O)N2CC2CCCO2)cc1 (stereo not drawn)
    -1.3 | -0.65
- Cc1ccc(NC(=O)NC(C)c2c(-n3cccc3)sc(C)c2C)cc1F (stereo not drawn)
    0.49 | 0.18
- O=S(=O)(NCc1cn2ccsc2n1)c1ccc2ccccc2c1
    . | -0.58
- Clc1ccc(-c2csc3ncnc(NCCN4CCCCC4)c23)cc1
    . | 0.18
- O=C(Cn1ccc2cc(S(=O)(=O)N3CCCCC3)ccc21)NCCc1cccs1
    . | 1.2
- COc1ccc(-c2nnc3n2-c2ccccc2OC3)cc1
    -1.8 | 1.6
- O=S(=O)(Nc1cc(-c2cccs2)nn1-c1ccc(F)cc1)c1cccc(F)c1
    -0.32 | .
- Cc1ccc(Nc2cc(N3CCN(S(=O)(=O)c4ccc(C)cc4C)CC3)nc(C)n2)cc1
    0.8 | 1.1
- Cc1ccc(-c2nnn3c2nc(Cl)c2ccccc23)cc1
    -1.2 | -0.4
- Cc1nc(-c2ccc(C(F)(F)F)cc2)sc1C(=O)NN
    -0.55 | .
- CSc1nc(N)nc(N2CCSCC2)n1
    -1.4 | .
- COC(=O)c1sc2cccc(F)c2c1S(=O)(=O)N1CCN(c2ccccn2)CC1
    . | -0.51
- COc1ccc(Nc2ncnc3sc(C(=O)O)c(C)c23)c(OC)c1
    . | 2.3
- O=C(NCc1cccs1)c1cc2cccc3c2n1CCS3
    . | -0.18
- Cn1c(=O)c(=O)n(C)c2cc(N3CCCCC3)c(NS(=O)(=O)c3ccc(F)c(Cl)c3)cc21
    . | 0.8
- O=C(NCc1ccc(F)cc1)N1CCN(c2nc3cc(F)ccc3n3cccc23)CC1
    . | 0.88
- CC(C)(C)NC(=O)CSc1ncccn1
    -0.33 | 2.8
- COc1cc(/C=C/c2[nH]c(=O)[nH]c(=O)c2[N+](=O)[O-])ccc1OC(C)C
    -1.3 | 1.1
- CCn1c(=O)n(-c2cccc(Cl)c2)c(=O)c2c3c(sc21)COC(C)(C)C3
    -1.8 | -1.4
- O=C(CSc1nnc2ccccn12)Nc1ccc(Cl)cc1
    -0.85 | -0.08
- Cc1cc(C)n(-c2nnc(Nc3ccccc3C)c3ccccc23)n1
    . | 1.4
- Cc1nn(CC(=O)Nc2ccc(Br)cc2F)c(=O)c2cccn12
    -1.4 | 0.76
- CSc1ccc(CNC(=O)c2c(N3CCCC3=O)c3cc(F)ccc3n2C)cc1
    . | 1.4
- Cc1ccc2occ(CC(=O)N(Cc3ccccc3)C3CCS(=O)(=O)C3)c2c1 (stereo not drawn)
    -2.3 | 1.1
- COc1cc(CN2CCN(C3C4CC5CC(C4)CC3C5)CC2)cc(OC)c1OC (stereo not drawn)
    -3.1 | .
- O=C(OCc1ccccc1)C1=NNC2C(=O)N(c3cccc(Cl)c3)C(=O)C12 (stereo not drawn)
    0.52 | -0.79
- CC(C)CCNS(=O)(=O)c1ccc(N2CCCCS2(=O)=O)cc1
    . | 0.72
- COC(=O)c1ccc2c(=O)n3nc(Nc4cc(C)ccc4C)sc3nc2c1
    . | 1.2
- COC(=O)c1ccncc1C(=O)Nc1ccc(C)cc1
    -1.6 | .
- O=C(O)C1C2CC=CC2c2cc(Cl)cc3c2N1CC1CC=CC31 (stereo not drawn)
    2 | -5.5
- O=S(=O)(Nc1cccc(-c2nc(-c3ccccc3)co2)c1)c1cccc(Cl)c1
    . | 1.7
- CCCC(=O)Nc1nc2nc(C)cc(C)n2n1
    -1.2 | -0.83
- COc1cccc(Nc2ncnc3onc(-c4ccccc4OC)c23)c1
    . | 1
- N#C/C(=C\Nc1ccc2c(c1)OCCO2)S(=O)(=O)c1ccc(C(F)(F)F)cn1
    -0.24 | .
- Cn1cc(Cl)c(-c2noc(-c3ccccc3C(F)(F)F)n2)n1
    -0.85 | .
- O=C(NC1(C(F)(F)F)C(=O)Nc2c1c(=O)[nH]c(=O)n2-c1ccccc1)c1cccs1 (stereo not drawn)
    3.3 | .
- COc1ccc(-c2noc(-c3nnn(-c4ccc(Cl)cc4)c3C)n2)cc1OC
    . | 0.52
- Cc1ccc(-n2ncc3c(NCCCn4ccnc4)ncnc32)cc1C
    . | 1.6
- CCS(=O)(=O)c1nc(S(=O)(=O)c2ccc(C)cc2)c(NCCCN(C)C)s1
    -0.19 | 2.5
- O=C(C1CC1)n1nc(-c2ccco2)nc1NCc1ccc(Br)cc1
    -2.1 | 1.3
- COc1ccc(CN2CCN(S(=O)(=O)c3ccc(F)c(F)c3)CC2)c(OC)c1OC
    0.33 | .
- CCc1cc(C)cc(OCCOc2ccccc2/C=N/n2cnnc2)c1
    1.1 | .
- COc1ccc2c(=O)c(CC(=O)O)coc2c1
    . | 1.1
- CC(C)OC(=O)Cn1c(=O)oc2ccccc21
    -0.93 | 0.05
- Cn1c(=O)oc2cc(S(=O)(=O)Nc3cccc(F)c3)ccc21
    -1.6 | .
- O=C1c2cccnc2C(O)N1Cc1ccc(F)cc1 (stereo not drawn)
    2.6 | 1
- Cc1ccc(CNS(=O)(=O)c2cccc3cccnc23)cc1
    0.28 | .
- O=C(Cc1cccs1)Nc1ccc2[nH]c(=O)[nH]c2c1
    . | 1.2
- Nc1cc(=O)n2c(n1)SCC(O)C2 (stereo not drawn)
    -0.01 | .

Next section
Order of values: CDC25B CDK2 inh | TAR Tat displ
- O=C(CN1Cc2ccccc2C1=O)Nc1ccc(Br)cn1
    . | 1.6
- Cc1nn(CC(=O)NCCC(C)C)c(=O)c2c(-n3cccc3)n(-c3ccc(Cl)cc3)nc12
    . | 0.66
- CCCn1c2ccccc2n2c(C(=O)OC)c(C)nc12
    -1.9 | .
- COc1cc(OC)cc(-c2nnc(NC(=O)c3ccc4c(c3)OCCO4)o2)c1
    . | 2
- Cc1cc(NC(=O)c2cnn3c4c(cnc23)CCCCC4)ccc1Br
    . | 0.49
- CCN1CCN(CCCn2c(=S)[nH]c3c(sc4ccccc43)c2=O)CC1
    -3 | .
- O=C(Cn1c(=O)c2cccn2c2cccnc21)N1CCN(Cc2ccc3c(c2)OCO3)CC1
    . | -1
- CC(C)(C)C(=O)NCC(c1cccs1)S(=O)(=O)c1ccc(Cl)cc1 (stereo not drawn)
    . | 1.5
- O=C(CCc1nnc2ccc(N3CCOCC3)nn12)N1CCN(c2ccccc2F)CC1
    . | -1.3
- O=S(=O)(c1ccccc1)n1nc(-c2ccco2)nc1NCc1ccc(Cl)cc1
    -2.1 | 1.8
- COC(=O)c1c(SCc2ccc(C)cc2C)[nH]c2ccccc2c1=O
    . | 0.98
- CC(C)(C)/C=N/NC(=O)Cn1cc(Cl)c(=O)c(Cl)c1
    -2.2 | .
- COc1ccc(C(=O)COc2cc(=O)oc3ccccc23)cc1
    -0.45 | .
- CCCc1c(C)c(C#N)c2nc3ccccc3n2c1NCc1cccnc1
    -2.7 | 2.3
- COc1ccc(C(=O)CSc2nc(-c3ccc(F)cc3)nc3c2c(=O)n(C)c(=O)n3C)cc1
    -0.76 | .
- Cc1sc(-n2cccc2CNCC2CCCO2)c(C(=O)O)c1C (stereo not drawn)
    . | -0.05

Reformatted with each value named: entries from further up
O=C(Cn1c(=O)c2cccn2c2cccnc21)N1CCN(Cc2ccc3c(c2)OCO3)CC1
  CDC25B CDK2 inh: .
  TAR Tat displ: -1

CC(C)(C)C(=O)NCC(c1cccs1)S(=O)(=O)c1ccc(Cl)cc1 (stereo not drawn)
  CDC25B CDK2 inh: .
  TAR Tat displ: 1.5

O=C(CCc1nnc2ccc(N3CCOCC3)nn12)N1CCN(c2ccccc2F)CC1
  CDC25B CDK2 inh: .
  TAR Tat displ: -1.3

O=S(=O)(c1ccccc1)n1nc(-c2ccco2)nc1NCc1ccc(Cl)cc1
  CDC25B CDK2 inh: -2.1
  TAR Tat displ: 1.8
